VACV Venus inh: inhibitors of vaccinia virus (Venus reporter). 330,000 tested, 0.46% active. Potency, µM (top dose mostly 36.5 µM), for inactives: at the top dose activity change, negative = inhibition, most hits filed as inhibitors. AID 720580. Vaccinia virus Venus reporter expression, fluorescence; active means well fitted inhibition curve with a large enough effect; inconclusive means small, poorly fitted or top-dose-only effect; inactive means no such curve, though single readings can be large or run the other way; tested in A549 cells; also: nearly all actives have a fitted effect of over 30% in size; inactives centre near -10
Vaccinia mCherry: vaccinia inhibition (mCherry reporter). 310,000 tested, 0.63% active. Vaccinia virus mCherry reporter infection, fluorescence; about a quarter of the inactives have no number. Potency, µM (top dose mostly 36.5 µM), without a hit: top-dose activity change, negative = inhibition, hits mostly inhibitors; active = well fitted inhibition curve with a large enough effect; inconclusive = small, poorly fitted or top-dose-only effect; inactive = no such curve, though single readings can be large or run the other way; tested in A549 cells; also: nearly all actives have a fitted effect of over 35% in size; inactives centre near -10
The depositor's hits bear a star; i = inactive; ? = inconclusive; . = no result given; & = joins results of further samples; [ ] = dose if it differs, or a comment. % is scaled to controls: 0 for no effect and ±100 for the full control effect; potency is read from the fitted curve at half-maximal effect.

SMILES	VACV Venus inh	Vaccinia mCherry
CC(C)(C)NC(=O)Cn1c(=O)oc2ccc(Cl)cc21	-8%	i
CCCCOc1ccc(-c2ncc(C(=O)O)c(C)n2)cc1	-16%	.
CCC1Sc2ccccc2N(CC(=O)NC2CCCCC2)C1=O (stereo not given)	-2%	-16%
Cc1cc2c(cc(C(=O)OC(C)C(=O)NCc3ccc(F)cc3)n2C)o1 (stereo not given)	-19%	-28%
COc1ccc(CCNc2nc(-c3ccncc3)cs2)cc1OC	-8%	-19%
O=C1S/C(=C\c2ccccc2)C(=O)N1CC(O)Cn1c2ccccc2c2ccccc21 (stereo not given)	-29%	-25%
NC(=O)c1c(NC(=O)c2ccco2)sc2c1CCC2	-26%	?
CCN(CC)C(=O)CN(Cc1ccccc1)S(=O)(=O)c1ccc(F)cc1	-10%	.
Cc1ccc(/C=C(/NC(=O)c2ccccc2)C(=O)NC(Cc2c[nH]c3ccccc23)C(=O)O)cc1 (stereo not given)	5%	i
COC(=O)N/N=C/c1ccc(-c2ccccc2Cl)o1	-24%	-26%
Cc1nn(Cc2c(Cl)cccc2Cl)c(C)c1NC(=O)c1cn(-c2ccccc2)nc1-c1ccccc1	?	?
C[C@H](NC(=O)c1ncn2c1C(=O)NC[C@H]2C)c1ccccc1	-6%	i
O=C1OC(Nc2nccs2)c2ccccc21 (stereo not given)	-7%	-14%
CCOC(=O)[C@]12CCC=C1N(Cc1ccc3c(c1)OCO3)C(=O)[C@H](CC(=O)NCc1cccc(C(F)(F)F)c1)C2	-22%	?
COc1ccc(CCNC(=O)c2ccc([N+](=O)[O-])cc2)cc1	-9%	-13%
CCCNC(=O)COC(=O)c1ccc(-c2ccccc2)cc1	-9%	-18%
CC(CCc1ccccc1)NC(=O)COC(=O)c1cc(NS(=O)(=O)c2ccc(Cl)c([N+](=O)[O-])c2)ccc1O (stereo not given)	?	-22%
COc1ccc(NC(=O)CSc2ncccc2C(=O)O)cc1OC	-8%	-10%
Cc1ccc(-n2nnnc2CNC(=O)c2ccc([N+](=O)[O-])o2)cc1C	?	?
Cc1ccc(-c2ccc(CN3C(CC(C)C)C(=O)N(Cc4cn(CCC5OCCO5)nn4)CCS3(=O)=O)cc2)cc1 (stereo not given)	?	?
c1ccc2c(c1)CCCN2	-11%	-17%
CCOC(=O)CSC1=Nc2ccccc2C2=NC(CC(=O)NCc3cccs3)C(=O)N12 (stereo not given)	-4%	-14%
O=C(O)c1cccc(NC(=O)c2cc(-c3cccc(Cl)c3)nc3ccccc23)c1	-13%	1%
COc1ccc(OCC#CCn2ccnc2)cc1	-12%	-15%
C=CCN1C(=O)/C(=C/c2cccs2)S/C1=N\S(=O)(=O)c1ccc(F)cc1	-6%	-4%

Carrying on:
SMILES	VACV Venus inh	Vaccinia mCherry
COc1ccc(CCN(C)C(=O)CNC(=O)c2ccccc2F)cc1OC	-6%	-13%
CCOC(=O)N1CCN(C(=O)CSc2ncnc3sccc23)CC1	-4%	-12%
CC1C(=O)C(C)C(c2ccccc2)N(N=O)C1c1ccccc1 (stereo not given)	0%	-10%
CCN(CC)C(=O)CSc1nc2sc3c(c2c(=O)n1-c1ccc(C)cc1)CC(C)(C)SC3	4%	-1%
Cc1cc(C)nc(NC(=NCCc2c[nH]c3ccccc23)NC(=O)c2ccco2)n1	?	?
COc1ccc2c(c1)c(CC(=O)Nc1c(C)cccc1C)c(C)n2C(=O)c1ccc(Cl)cc1	?	?
COc1ccc2c(c1)C(C)=CC(C)(C)N2C(=O)CSc1nnc(-c2ccc(C)cc2)o1	-10%	-15%
COc1ccc(COC(=O)C2CCN(S(=O)(=O)c3ccc(C)cc3)CC2)cc1	-13%	i
CCN(CC)S(=O)(=O)c1ccc(NS(=O)(=O)c2cccs2)cc1	-6%	i
Cc1cc(C)nc(Sc2nc(Nc3ccccc3)nc(Sc3nc(C)cc(C)n3)n2)n1	?	?
COc1ccc(NC(=O)C[C@H]2C(=O)N(c3ccc(Br)cc3)C[C@@H]2CSC)cc1	-19%	i
N#Cc1ccc(CSc2nnc(-c3cccnc3)n2-c2ccccc2)cc1	1%	-5%
NS(=O)(=O)c1ccc(CCNS(=O)(=O)c2cccc3nsnc23)cc1	-1%	1%
O=C1C2C3c4ccccc4C(c4ccccc43)[C@@H]2C(=O)N1c1cccnc1 (stereo not given in full)	-4%	-13%
COc1ccc(CNC(=O)COc2ccc(S(=O)(=O)N3CCOCC3)cc2)cc1	-8%	-16%
O=C(c1ccccc1)N1CCN2C(=O)c3ccccc3C12c1ccc(Cl)cc1 (stereo not given)	-11%	.
Cc1ccc(NC(=O)CSc2nnc(Cn3c(=O)sc4ccccc43)n2C)cc1Cl	4%	-7%
CN(C)S(=O)(=O)c1cccc(COC(=O)Cc2c(F)cccc2Cl)c1	-5%	i
Cc1cc(NS(C)(=O)=O)c(=O)n(Cc2cccc(C(F)(F)F)c2)c1	-5%	i
O=[N+]([O-])c1ccc(-c2cn(-c3ccc(Cl)cc3)c(=S)[nH]2)cc1	-4%	-18%
COC(=O)c1c(NC(=O)C(=O)N2CCCC2)sc2c1CC(C)(C)OC2	-12%	-19%
O=c1sc2ccccc2c(N2CCCCC2)c1[N+](=O)[O-]	-15%	i
CC(=O)c1ccc(-c2c(C)cc3oc(=O)cc(-c4ccccc4)c3c2C)cc1	0%	-12%
N#Cc1nc(-c2cccc3ccccc23)oc1N1CCCCC1	-10%	i
Cn1c(=O)c2c(ncn2CC(=O)OCCCC(=O)c2ccc(Br)cc2)n(C)c1=O	-7%	-12%

The listing continues.
SMILES	VACV Venus inh	Vaccinia mCherry
CN1C(=O)N(CN2CCCCC2)C2C1N(C)C(=O)N2CN1CCCCC1 (stereo not given)	-22%	i
CC1(c2ccccc2Cl)NC(=O)N(CC(=O)Nc2ccc3c(c2)OCO3)C1=O (stereo not given)	-16%	-23%
Cc1ccc(NC(=O)CN2C(=O)CC(C)S(=O)(=O)c3ccccc32)cc1 (stereo not given)	-11%	0%
CCCCC(=O)NS(=O)(=O)c1ccc(N=NN2CCCCC2)cc1	0%	i
O=C(NC(=S)N1CCN(C/C=C/c2ccccc2)CC1)c1ccc(F)cc1	-15%	?
COc1ccc(C2CC(c3ccccc3)=NN2c2ccc(S(N)(=O)=O)cc2)cc1 (stereo not given)	-21%	?
CNC(=S)NNC(=O)c1sc2cc(C(F)(F)F)cnc2c1-c1cccnc1	-12%	-3%
COc1ccc2c(c1)CCc1c(C(=O)NCC(C)C)noc1-2	-22%	-27%
O=C(Nc1ccc(NC(=O)c2ccc3c(c2)OCCO3)cc1)c1ccccc1	-11%	-7%
Cc1ccc2nc(NC(=O)C3CCN(c4ncnc5sc(C)c(C)c45)CC3)sc2c1	-16%	i
O=C(CN1CCN(c2ccc(F)cc2)CC1)Nc1ccc2c(c1)OCCO2	-10%	-11%
Cc1ccc(C)c(CN2C(=O)c3ccccc3S(=O)c3ccc(C(=O)N4CCCCC4)cc32)c1 (stereo not given)	-11%	2%
Nc1ncnc2nnsc12	-11%	39%[activator]
CCN(CC)CCNC(=O)c1ccc(Cl)c(S(=O)(=O)Nc2ccc(Cl)cc2)c1	0%&5%	-6%
CCOc1ccc(C(=O)Nc2nnc(SCc3cc(=O)c4cc(C)ccc4[nH]3)s2)cc1	-1%	6%
CCN(CC)C(=O)C1CCN(S(=O)(=O)c2cccc3nonc23)CC1	-7%	i
CCOc1cc(NC(=S)NCc2ccco2)c(OCC)cc1NC(=O)c1ccco1	-7%	-3%
Cc1ccc(SCc2ccc(C(=O)Nc3cccc([N+](=O)[O-])c3C)cc2)cc1	-19%	i
COc1ccccc1OCCn1c(CCNC(=O)C2CCCCC2)nc2ccccc21	-9%	11%
CCOCCCn1c(SCc2nc3sc(C(=O)O)c(C)c3c(=O)[nH]2)nnc1-c1ccc(Cl)cc1	2%	i
COc1ccc(NC(=O)c2ccco2)cc1NC(=O)c1c(F)c(F)c(OC)c(F)c1F	-10%	.
Cc1nn(C(C)C(=O)O)c(=O)c2c1sc1ccccc12 (stereo not given)	-11%	-3%
O=S(=O)(Cc1ccc(Cl)cc1)c1ccccc1-c1nnc(-c2ccccc2)o1	-12%	.
Cn1c(NCc2cccc(Cl)c2)nc2ccccc21	-13%	-17%
COc1ccc(C(C)=O)cc1COC(=O)CSC(C)C(=O)Nc1cc(C)on1 (stereo not given)	-10%	-18%

Following part:
SMILES	VACV Venus inh	Vaccinia mCherry
Cc1ccc(NC(=O)CN2C(=O)S/C(=C\c3cccn3C)C2=O)cc1	-9%	-9%
CC(C)(C)C(=O)Nc1ccc(-c2nc3ccccc3c(=O)o2)cc1	-18%	-3%
Cc1ccc(S(=O)(=O)CC(=O)c2cc(C)c(OC(=O)N(C)C)c(C)c2)cc1	-15%	-23%
S=C(NCc1ccccn1)Nc1ccccc1Cl	-5%	-15%
CCOc1ccccc1NC1=NCC(=O)N1Cc1ccc(F)cc1	-20%	i
Cc1cnc(C(=O)N2CCN(S(=O)(=O)c3cccc(Br)c3)CC2)cn1	4%	-9%
Cc1cc(Nc2ccccc2)nn1C(=O)c1ccc([N+](=O)[O-])cc1	-17%	-1%[1.46 µM]
O=C1OCC/C1=C\NCCCN/C=C1\CCOC1=O	-7%	i
CCC(=O)N1CCc2cc(S(=O)(=O)NCCC(=O)Nc3ccc(N(CC)CC)cc3C)ccc21	-28%	-23%
NC(=O)c1[nH]cnc1N=NN(CCO)Cc1ccccc1	-7%	-6%
CCC(=O)n1nc(NCc2ccccc2OC)nc1NCc1ccccc1OC	-25%	.
CCc1ccc(NC(=S)N2CCC(NC(=O)C3CCCCC3)CC2)cc1	11%	10%
COc1ccc(NC(=O)c2cc(-c3ccccn3)nc3c(C)cc(C)cc23)c(C)c1	-8%	i

Assay outcomes (PubChem)
